GIRK2 activ – GIRK2 channel activation | P48051 | 63,000 tested, 0.05% active | calls only for hits at 25 µM | HEK293-GIRK2 thallium flux, Thallos fluorescence;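 active = among the strongest 0.2% of first-round signals and kept after retests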;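 note: first round at about 10 µM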
Target sequence (P48051 whole entry, looked up): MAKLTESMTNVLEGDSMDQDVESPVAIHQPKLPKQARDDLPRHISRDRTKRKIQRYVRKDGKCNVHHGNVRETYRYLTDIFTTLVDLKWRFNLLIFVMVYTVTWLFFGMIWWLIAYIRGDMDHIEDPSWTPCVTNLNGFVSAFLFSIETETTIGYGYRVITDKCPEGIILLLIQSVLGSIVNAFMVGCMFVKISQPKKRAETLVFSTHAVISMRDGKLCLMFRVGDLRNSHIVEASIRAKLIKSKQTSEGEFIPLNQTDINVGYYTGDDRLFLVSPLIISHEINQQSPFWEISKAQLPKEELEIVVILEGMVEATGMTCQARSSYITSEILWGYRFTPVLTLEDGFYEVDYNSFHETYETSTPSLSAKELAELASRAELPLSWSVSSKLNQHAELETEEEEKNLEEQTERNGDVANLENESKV
Calls only; i = inactive; + = active, no number. Some of the compounds tested (hit frequency here may not be typical).

SMILES | GIRK2 activ
COc1ccccc1-c1ccc(N2CCCC(C(=O)NCc3ccco3)C2)nn1 (stereo not given) | i
O=C(c1ccc(C(F)(F)F)cc1)N(CCc1cccs1)Cc1ccoc1 | i
CCN(CC)CCN1C(=O)c2oc3cc(C)c(Cl)cc3c(=O)c2C1c1ccccc1 (stereo not given) | i
COC1CC(O[C@H]2CC[C@]3(C)C4CC[C@]5(C)C(C6=CC(=O)OC6)=CCC56OC46CC[C@@H]3C2)OC(C)C1O[C@@H]1O[C@H](CO[C@@H]2O[C@H](CO)[C@@H](O)[C@H](O)[C@H]2O)[C@@H](O)[C@H](O)[C@H]1O (stereo not given in full) | i
COc1ccccc1N1CCN(C(=O)Cn2nc3c(Sc4cccc(C)c4)nccn3c2=O)CC1 | i
COc1cccc(NC(=O)COc2cc(C)nc(N3CCN(c4ccccc4)CC3)n2)c1 | i
O=C(CNC(=O)c1ccccc1)Nc1cnc(Oc2ccccc2)nc1 | i
Cc1ccc(S(=O)(=O)c2c(N)n(NC(=O)C3CC3)c3nc4ccccc4nc23)cc1 | i
CCCCn1c(=O)c2c(nc3n2CCCN3c2ccc(OC)cc2OC)n(C)c1=O | i
Cc1noc(-c2ccc(N3CCC(NC(=O)Cc4cccs4)C3)nc2)n1 (stereo not given) | i
O=C(CN1CCN(c2cccc(Cl)c2)C1=O)NCc1ccco1 | i
CCOc1cccc(-c2noc(Cn3cc(-c4nc(-c5ccncc5)no4)ccc3=O)n2)c1 | i
CC1=C(CC(=O)O)c2cc(F)ccc2/C1=C/c1ccc(S(C)=O)cc1 (stereo not given) | i
Cc1cccc(NC(=O)c2nnn(-c3ccc(F)cc3)n2)c1C | i
COc1ccc(-n2nnc(C(=O)Nc3ccccc3Cl)c2C)cc1 | i
Cc1cccc(NC(=O)N2CCC(Cn3ccnc3)CC2)c1 | i
COc1ccc(S(=O)(=O)NCCNc2ccc(-n3cccc3)nn2)c(OC)c1OC | i
CNc1nc2c(c(=O)n(C)c(=O)n2C)n1CC(O)COc1ccccc1Cl (stereo not given) | i
Cc1cc(OCC(=O)Nc2ccc(Cl)cc2F)nc(N2CCCC(C)C2)n1 (stereo not given) | i
COc1ccccc1OCCCCn1c(C(C)O)nc2ccccc21 (stereo not given) | i
COc1ccc(CNC(=O)NCC2(O)CCOc3ccccc32)cc1OC (stereo not given) | i
COc1ccc(NC(=O)Cc2n[nH]c(Cc3ccc(F)cc3)n2)cc1Cl | i
O=C(NCc1cccs1)Nc1nnc(-c2cc(Cl)sc2Cl)o1 | i
CCc1nnc2c(SCC(=O)Nc3cc(Cl)ccc3C)nc3ccccc3n12 | i
COCCN(Cc1ccoc1)C(=O)CCSc1ccccc1 | i
COC1(CNS(=O)(=O)Cc2ccc(C(F)(F)F)cc2)CCSC1 (stereo not given) | i
O=C(N=C1SC2CS(=O)(=O)CC2N1c1cccc(C(F)(F)F)c1)c1ccccc1 (stereo not given) | i
COc1ccccc1NC(=O)NCCNc1cc(-n2cccc2)nc(C)n1 | i
O=C(c1ccc(Cn2ccnc2)cc1)N1CCC(c2nnc(-c3ccc(F)cc3)o2)CC1 | i
O=C(NCC1(c2cccs2)CCCC1)c1ccno1 | i

Six entries out of the list, sorted by molar mass, rising.
SMILES | GIRK2 activ
O=C(NCC1(c2cccs2)CCCC1)c1ccno1 | i
COc1ccccc1OCCCCn1c(C(C)O)nc2ccccc21 (stereo not given) | i
COc1ccc(CNC(=O)NCC2(O)CCOc3ccccc32)cc1OC (stereo not given) | i
Cc1cc(OCC(=O)Nc2ccc(Cl)cc2F)nc(N2CCCC(C)C2)n1 (stereo not given) | i
CNc1nc2c(c(=O)n(C)c(=O)n2C)n1CC(O)COc1ccccc1Cl (stereo not given) | i
COc1ccc(S(=O)(=O)NCCNc2ccc(-n3cccc3)nn2)c(OC)c1OC | i

Next section:
SMILES | GIRK2 activ
Cc1cc(=O)n(CCNC(=O)c2c[nH]c(=O)[nH]2)cn1 | i
COc1ccc(N2CCCn3c2nc2c3c(=O)n(Cc3ccc(F)cc3)c(=O)n2C)c(OC)c1 | i
CC1CCN(c2cc(-n3cnc(C(=O)Nc4ccc5c(c4)OCCO5)c3)ncn2)CC1 | i
COc1ccc(-c2noc(CSc3nc4ccccc4c(=O)n3Cc3cccs3)n2)cc1 | i
CCOc1ccc(-c2nc(Cn3nnc(C(=O)NCc4ccc(Cl)cc4)c3N)c(C)o2)cc1 | i
Cc1ccc(NC(=O)c2ccc(C(F)(F)F)cc2)cc1N1CCCC1=O | i
Cc1ccc2c(c1)NC(C(=O)Nc1ccc(-c3ccccc3)cc1)NS2(=O)=O (stereo not given) | i
Cc1c(Cl)cccc1NC(=O)c1csc(Nc2ccccn2)n1 | i
Cc1cn2c(nc3c2c(=O)n(C/C=C/c2ccccc2)c(=O)n3C)[nH]1 | i
Cc1nc2ccccn2c1C(=O)NCC1CCN(c2cnccn2)CC1 | i
CCOc1ccc2ccccc2c1C(=O)NCc1ccc(C(O)c2cccs2)s1 (stereo not given) | i
O=C(CCCS(=O)(=O)Cc1ccccc1)N1CCc2ccccc2C1 | i
COc1ccc(-c2nc(C)c(-c3cc(=O)[nH]c(SCC(=O)NCc4ccccc4)n3)s2)cc1 | i
Cc1cc(N2CCN(C(=O)NC3CCCC3)CC2)ncn1 | i
COc1ccc(/C=C/C(=O)Nc2cnc(-n3cccn3)nc2)cc1OC | i
Cc1cc2c(=O)n(C)c(SCC(=O)Nc3cccc(Cl)c3)nc2s1 | i
Cc1ccc(-c2nnc(NC(=O)NCc3ccc(F)cc3)o2)c(C)c1 | i
CCNC(=O)c1cc2c(=O)n3cccc(C)c3nc2n(CCO)c1=N | i
CC(C)(C)c1ccc(S(=O)(=O)NCc2ccc(C(=O)N3CCOCC3)cc2)cc1 | i
CCC(=O)Nc1ccc(S(=O)(=O)NCCOc2ccc3c(c2)OCO3)cc1 | i
COc1nn(C)cc1C(=O)NCC1CCN(c2cnccn2)CC1 | i
COc1ccc(Cl)cc1NC(=O)N1CCC(Cn2cnc3ccccc32)CC1 | i
COC(=O)c1ccc(C2C(=C(O)c3ccc(OC)cc3)C(=O)C(=O)N2c2cc(C)on2)cc1 (stereo not given) | i
COc1ccc(NC(=O)C2=Cc3ccccc3OC2)c([N+](=O)[O-])c1 | i
COc1ccc(-c2cc(C(F)(F)F)c(C#N)c(SCCC(N)=O)n2)cc1OC | i
COc1ccccc1-c1c(C)oc2c3c(ccc2c1=O)OCN(C1CCS(=O)(=O)C1)C3 (stereo not given) | i
CCc1ccccc1-n1c(C)cn2c3c(=O)n(CC(C)=O)c(=O)n(C)c3nc12 | i
O=c1c2cc(Cl)ccc2nc2sc(Nc3ccccc3F)nn12 | i
Cc1ccc2nc(N3CC(C(=O)NCC(F)(F)F)C3)sc2c1 | i
O=C(CN1CCN(CC(O)C2CC2)CC1)NC1CCCCC1 (stereo not given) | i
CCCNC(=O)C(=O)NCC1OCCCN1S(=O)(=O)c1ccc(OC)cc1 (stereo not given) | i
O=C(c1cc(-c2ccc3c(c2)OCCO3)on1)N1CCN(c2cccc(Cl)c2)CC1 | i
Cn1nc(CNC(=O)CSCc2ccccc2)cc1-c1ccncc1 | i
COc1ncccc1C(=O)Nc1ccc(N2CCCN(C(=O)C3CC3)CC2)cc1 | i
CCCS(=O)(=O)N1CCCc2ccc(NS(=O)(=O)c3ccc(OC)cc3OC)cc21 | i
CCOc1ccc(-c2noc(Cn3cnc4c(nnn4Cc4ccccc4)c3=O)n2)cc1OC | i
CC(=O)OCC(=O)[C@@]12OC(C)(C)O[C@@H]1C[C@H]1[C@@H]3C[C@H](F)C4=CC(=O)C=C[C@]4(C)[C@@]3(F)[C@@H](O)C[C@@]12C | i
O=C(NCC(F)(F)F)c1cccs1 | i
Cn1ccnc1SCC1CCN(C(=O)c2ccccc2Br)CC1 | i
COc1ccc(C2NC(=O)NC(C)=C2C(=O)Nc2cc(C)cc(C)c2)cc1 (stereo not given) | i
O=C(Cn1nc(-c2ccccc2)ccc1=O)NCc1ccco1 | i
CCN(CC)CCN1C(=O)c2oc3cc(C)c(C)cc3c(=O)c2C1c1ccccc1OC (stereo not given) | i
COc1ccc(NC(=O)c2nnn(-c3ccccc3C)c2-c2ccncc2)c(C)c1 | +
Cc1ccc(S(=O)(=O)Nc2ccc3c(c2)CCCN3S(=O)(=O)c2ccccc2)cc1 | i
O=C(c1ccccc1C(F)(F)F)N1CCC(Oc2nc3ccccc3s2)CC1 | i
CC1CCN(c2nc3c(c(=O)n(C)c(=O)n3C)n2CCCc2ccccc2)CC1 | i
COc1cccc(NC(=O)N2CCc3c(c(=O)c4cc(C)cc(C)c4n3C)C2)c1 | i
Cn1nc(C(=O)NCCCOc2cccc3cccnc23)ccc1=O | i
O=C(CCSc1ccccc1)NCC1COC2(CCCCC2)O1 (stereo not given) | i
O=C(NCc1cccs1)N1C2CCC1COC2 | i
O=Cc1ccc(-c2ccc(Cl)c(Cl)c2)cc1 | i
COc1ccccc1OCC#CCNC(=O)CC(C)C | i
COc1ccc(Cl)cc1NC(=O)N1CCC(C(=O)NCC(F)(F)F)CC1 | i
CCOc1ccc(-c2cc3c(N4CCC(C(=O)NC(C)c5ccccc5)CC4)nccn3n2)cc1 (stereo not given) | i
CCn1c(C)cc(O)c(C(c2ccccc2[N+](=O)[O-])c2c(O)cc(C)n(CC)c2=O)c1=O | i
COc1ccccc1/C=C/C=C1\Oc2cc(O)ccc2C1=O | i
CCOc1ccccc1-n1c(C)cn2c3c(=O)n(CCN4CCCCC4)c(=O)n(C)c3nc12 | i
COc1ccccc1OCC#CCNC(=O)c1ccc(=O)n(C)n1 | i
CCN(CC)CCN1C(=O)C(O)=C(C(=O)c2cc3ccccc3o2)C1c1ccco1 (stereo not given) | i
CSCCC(C)(O)CNC(=O)c1ccco1 (stereo not given) | i
Remaining list, next part
SMILES | GIRK2 activ
CC(C(=O)Nc1ccccc1-c1ccc(=O)[nH]n1)n1nc(-c2cccs2)ccc1=O (stereo not given) | i
Cc1cccc(N2CCN(S(=O)(=O)CCCNC(=O)COc3ccccc3C)CC2)c1 | i
O=C1/C(=C\c2ccc(OCc3ccc4c(c3)OCO4)cc2)SC(=S)N1c1cccnc1 | i
COc1ccc(C2CCN(C(=O)NC3CCCCCC3)C2)cc1 (stereo not given) | i
CC(C)CNC(=O)CCn1c(=O)c2ccccc2n2c(SCC(=O)N(C)c3ccccc3)nnc12 | i
COc1ccc(NC(=O)c2cn(Cc3ccc(NC(C)=O)cc3)cn2)cc1 | i
C=C(C)COc1ccc(-c2[nH]ncc2-c2ccccc2OC)c(O)c1 | i
COc1ccc(-c2csc3c(=O)n(CC(=O)Nc4cc(Cl)c(OC)cc4OC)cnc23)cc1 | i
COc1ccc(-c2c(C)c3ccc(OCCN4CCOCC4)cc3oc2=O)cc1OC | i
CCOC(=O)c1ccc(S(=O)(=O)N2CCN(c3ccc(-c4ccco4)nn3)CC2)cc1 | i
COCCCn1cnc2c(-c3ccccc3)cn(CC(=O)Nc3ccc4c(c3)OCO4)c2c1=O | i
O=C(CN1N=NC2C(=O)N(c3ccc(Cl)cc3)C(=O)C21)Nc1ccc(Cl)cc1Cl (stereo not given) | i
Cc1ccccc1-c1ccc(N2CCCC(C(=O)Nc3cc(-n4cccn4)ncn3)C2)nn1 (stereo not given) | i
O=C(NCc1cccc2ccccc12)N(Cc1ccsc1)CC(F)(F)F | i
CCc1ccc(NC(=O)Cn2ccn(-c3ccc(C)c(C)c3)c(=O)c2=O)cc1 | i
CN(CC(=O)NCc1ccccc1OC(F)(F)F)C(=O)c1ccc(=O)[nH]c1 | i
COc1ccc(-n2ccn(CC(=O)Nc3cc(Cl)ccc3OC)c(=O)c2=O)cc1 | i
Cc1nnc(NC(=O)CSc2nnc(-c3ccc(=O)n(C)c3)n2C)s1 | i
Cc1cc(Cl)cc2sc(N(Cc3ccccn3)C(=O)CCc3ccccc3)nc12 | i
O=S(=O)(NCCCN1CCN(c2ccccc2)CC1)c1cccs1 | i
O=S(=O)(CCc1ccccc1)N1CCC2(CC1)OCCCO2 | i
O=C(NCCN1CCOCC1)c1cc2cc(Br)ccc2o1 | i
CCOc1ccccc1Oc1c(C(F)(F)F)oc2cc(OC(=O)N3CCOCC3)ccc2c1=O | i
O=C(CSc1nc2ccccc2s1)N1CCC(Oc2ccccn2)CC1 | i
CC[N+]1(CC(O)COc2ccc(C(C)(C)CC(C)(C)C)cc2)CCCC1 (stereo not given) | i
CCOC(=O)CCC(=O)N1CCC(CSc2ccccn2)CC1 | i
Cc1nc(C)c(C(=O)C2=C(O)C(=O)N(CCN(C)C)C2c2ccc(F)cc2)s1 (stereo not given) | i
O=C(Nc1ccc2oc(=O)ccc2c1)C1=Cc2ccccc2OC1 | i
O=C(/C=C/c1ccco1)NCCC(O)c1ccc2c(c1)OCO2 (stereo not given) | i
COC(=O)c1ccccc1C(=O)N1CCCC(c2nnc(-c3cccs3)o2)C1 (stereo not given) | i
Cn1cc(-c2nc(-c3cccc(Br)c3)no2)c(=O)c2cc(F)ccc21 | i
N#Cc1cccc(C(=O)N(Cc2ccsc2)Cc2ccco2)c1 | i

In the list so far, these contain a cyano group:
SMILES | GIRK2 activ
COc1ccc(-c2cc(C(F)(F)F)c(C#N)c(SCCC(N)=O)n2)cc1OC | i
N#Cc1cccc(C(=O)N(Cc2ccsc2)Cc2ccco2)c1 | i

An excerpt of these results, as labelled records:
> COC(=O)c1ccccc1C(=O)N1CCCC(c2nnc(-c3cccs3)o2)C1 (stereo not given)
  GIRK2 activ: i

> O=C(Nc1ccc2oc(=O)ccc2c1)C1=Cc2ccccc2OC1
  GIRK2 activ: i
